# Source: PubChem
# TRPML1 inh: blocks the human TRPML1 channel; Q9GZU1; TRPML1-inducible cells, Ca2+ dye fluorescence, FDSS; hits give low values; inhibition of EC80 agonist-evoked calcium signal; activity change, negative = inhibition, % (test concentration not listed); 390,000 compounds, 0.02% hits; AID 624415; in the data active means activity change below about -50%; inconclusive means about -30% to -50%; inactive means above about -30%;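 further: stimulus is agonist 54-4 at its EC80 concentration; on the % scale 0 is the no-effect control and ±100 the full control effect; compound concentration not given in the record; the text of the record puts the active cut at -80%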
# Target sequence (Q9GZU1 whole entry, looked up): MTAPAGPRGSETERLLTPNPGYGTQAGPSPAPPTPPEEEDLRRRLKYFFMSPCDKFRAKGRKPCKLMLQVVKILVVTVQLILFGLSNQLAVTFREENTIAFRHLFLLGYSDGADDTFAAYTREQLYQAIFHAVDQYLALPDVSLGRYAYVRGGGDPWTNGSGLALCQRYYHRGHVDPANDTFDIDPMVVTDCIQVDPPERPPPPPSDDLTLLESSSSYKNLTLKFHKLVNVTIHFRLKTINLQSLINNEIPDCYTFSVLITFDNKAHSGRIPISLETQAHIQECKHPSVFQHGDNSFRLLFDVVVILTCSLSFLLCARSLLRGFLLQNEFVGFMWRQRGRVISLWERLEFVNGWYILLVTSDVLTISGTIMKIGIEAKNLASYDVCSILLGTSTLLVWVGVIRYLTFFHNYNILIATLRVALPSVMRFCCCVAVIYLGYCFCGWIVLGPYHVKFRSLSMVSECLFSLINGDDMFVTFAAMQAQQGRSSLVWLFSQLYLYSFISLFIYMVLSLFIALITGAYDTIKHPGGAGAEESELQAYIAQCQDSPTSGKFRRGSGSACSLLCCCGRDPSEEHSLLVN
#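 Calcium fluorescence in TRPML1-DL cells induced overnight with Tet: a 110 s read after compound pin addition, then a 110 s antagonist read after challenge with 54-4 at 4 uM final (EC80).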
# TRPML1 ag: human mucolipin-1 channel agonism. Q9GZU1. TRPML1-expressing cells, Ca2+ dye fluorescence, FDSS; host cell line not named in the record; reference of the full effect not given here. activation, % (test concentration not listed). 410,000 compounds, 0.12% hits; in the data active = activation above about 50%; inconclusive = about 30% to 50%; inactive = below about 30%; further: 0% is about no effect; the text of the record puts the active cut at 80%
#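 Calcium fluorescence on an FDSS kinetic reader gave the read-out. Tet-induced TRPML1-DL cells were plated overnight, dye-loaded (Ca8 with quencher, 45-90 min, room temperature, dark), then read 110 s after compound addition, and again 110 s after 4uM final 54-4 (EC80).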
# TRPV1 potentiator: human TRPV1 potentiation; Q8NER1; 320,000 compounds, 0.02% hits; TRPV1-expressing cells, Fluo-8 calcium influx, capsaicin EC20 potentiation; host cell line not named in the record; control for the full effect not named in the record; potentiation, % at 8.33 µM; active means potentiation above 80%; inconclusive means 30% to 80%; inactive means below 30%; further: 0% is about no effect
#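 Fluo-8 calcium influx in TRPV1-expressing cells, kinetic read (ex 480/em 520 nm). Compound added and read 3 min for agonist activity, followed by capsaicin at EC20 final and 2 min further read for enhancement.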
# Six1-Eya2 inh: Six1/Eya2 interaction inhibition; AID 651725; activity change, % (test concentration not listed); Q15475+O00167; 360,000 compounds, 0.56% hits; AlphaScreen GST-Six1/His-Eya2 binding, biochemical; hits give low values; control for the full effect not named in the record; in the data active = activity change below about -65%; inconclusive = about -30% to -65%; inactive = above about -30%; further: on the % scale 0 is the no-effect control and ±100 the full control effect
#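 AlphaScreen luminescence read after one hour at 37 °C in darkness. Pin-transferred compounds met GST-Six1 and His-Eya2 protein (5X stock 250 nM/500 nM) plus glutathione donor and Ni-chelate acceptor beads (5X, 50 ug/mL).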
# CtBP-E1A inh: blocks the CtBP interaction with E1A. AlphaScreen GST-E1A/His-CtBP binding, 1536-well; hits give low values; control for the full effect not named in the record. activity change, % (test concentration not listed). 340,000 compounds, 0.49% hits; in the data active means activity change below about -65%; inconclusive means about -30% to -65%; inactive means above about -30%; further: on the % scale 0 is the no-effect control and ±100 the full control effect
#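 Steps: dispense buffer (Tris pH 8.0, NaCl 300 mM, TCEP 1 mM, BSA, Tween 20); add 5X protein mix (GST-E1A, His-CtBP, 125 nM each); pin 23 nL compound; 2 h at 37 °C, dark; add 5X beads (50 ug/mL); 1 h; read.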
# D2 potentiator: human D2 receptor positive allosteric modulation; P14416; DiscoveRx D2 beta-arrestin cells, luminescence, 90 min; 100% = 57 uM dopamine signal; potentiation, % (no concentration beside the values); 360,000 compounds, 0.23% hits; AID 624464; active = potentiation of 50% or more; inconclusive = 30% to 50%; inactive = 30% or less;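 further: compound concentration not given in the record; tested on top of an EC20 dose of dopamine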
# Target sequence (P14416 whole entry, looked up): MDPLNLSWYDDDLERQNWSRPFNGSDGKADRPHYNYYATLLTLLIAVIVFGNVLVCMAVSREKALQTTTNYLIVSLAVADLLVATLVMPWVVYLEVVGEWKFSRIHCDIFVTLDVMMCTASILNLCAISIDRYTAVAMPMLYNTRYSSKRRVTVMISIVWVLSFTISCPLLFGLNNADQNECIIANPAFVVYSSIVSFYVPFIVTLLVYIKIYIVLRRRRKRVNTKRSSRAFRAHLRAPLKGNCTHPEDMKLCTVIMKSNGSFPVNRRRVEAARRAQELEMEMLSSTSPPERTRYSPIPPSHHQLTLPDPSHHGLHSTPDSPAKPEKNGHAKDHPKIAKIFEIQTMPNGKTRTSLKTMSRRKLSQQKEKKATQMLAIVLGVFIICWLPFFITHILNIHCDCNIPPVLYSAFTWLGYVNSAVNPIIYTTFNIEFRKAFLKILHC
#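 D2 cells co-treated with compound plus 50 nM dopamine (EC20) for 90 min at 37 deg C to detect potentiation. Beta-arrestin recruitment was read as enzyme-fragment luminescence after 1 h at ambient temperature. Full response was set by 57 uM dopamine.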
# * = called active by the depositor; ? = inconclusive; nt = not tested or not shown; & = joins results of further samples.
SMILES,TRPML1 inh,TRPML1 ag,TRPV1 potentiator,Six1-Eya2 inh,CtBP-E1A inh,D2 potentiator
CCOC(=O)CCc1nn(C)c(=O)c2ccccc12,-1,0.6,-4,1,1,-22
Cc1nnc(SCC(=O)Nc2ccc(Cl)cn2)n1Cc1ccccc1,-12,2.8,-3,0,5,-7
O=C(Nc1cccc(C(F)(F)F)c1)c1ccc2sc([C@H]3C[C@H](O)[C@@H](CO)O3)nc2c1,nt,-0.7,nt,0,-14,-3
Fc1ccc(NC(=S)N2CCN(c3cccc(C(F)(F)F)c3)CC2)cc1,-13,0.8,8,-4,-9,-31
COc1ccc(CCNC(=O)C(=O)NCC2CCCN2S(=O)(=O)c2cccs2)cc1OC (stereo unspecified),7,0.1,2,-2,6,2
CCN(CC)c1ccc(/C=N/NC(=S)NCc2ccccc2)c(O)c1,-28,2.6,-6,?,?,5
O=C(Cn1nc(-c2ccccc2)c2ccccc2c1=O)Nc1ccc(O)cc1,-1,-1.0,-6,4,nt,-10
COc1ccc(C(=O)NCCN2CCOCC2)cc1OC,46,-0.5,-9,2,-1,2
COc1ccccc1CN1CC(C(=O)NCCSc2nnnn2C)CCC1=O (stereo unspecified),0,0.2,4,3,5,-12
O=C(Nc1ccccc1)N(Cc1ccccc1)C1=NCCS1,41,-0.3,3,5,9,-8
CC1CCN(C(=O)c2cc3ccccc3c(=O)o2)CC1,19,-0.1,-12,2,-3,-15
CN(CC(=O)Nc1ccccc1Br)C(=O)CCc1ccccc1,9,1.1,7,-1,7,-8
Cc1cc(OCC[N+]2(C)CCCCC2)nc2ccccc12,-6,-0.9,24,-1,3,-16
CCCN1C(=O)/C(=C/c2ccc3c(c2)OCO3)NC1=S,0,-0.4,-6,-3,-11,-3
C=CCSc1nnc(NC(=O)COc2ccccc2)s1,6,3.4,6,0,10,-4
O=C([C@H]1O[C@@H](n2ccc(=O)[nH]c2=O)[C@H](O)[C@@H]1O)N(CCC1=CCCCC1)CC1CC1,nt,0.0,nt,20,33,2
CS(=O)(=O)N1CCN(c2ccccc2NC(=O)c2ccc(Cl)cc2)CC1,8,-1.9,-6,5,4,18
CC1CCc2nc3ccc(S(=O)(=O)N4CCC(C(=O)N5CCCCC5)CC4)cc3c(C(=O)O)c2C1 (stereo unspecified),-11,-0.7,2,-6,2,0
Cc1ccc(S(=O)(=O)Nc2cc3c(C(=O)Nc4ccccc4)c(C)oc3c3ccccc23)cc1,10,-0.4,6,-8,-9,84*
CCNC(=O)CC1C(=O)N(c2ccc(OC)cc2)C(=O)N1CCOC (stereo unspecified),nt,nt,1,3,4,-2
CC(=O)c1sc(N/N=C\c2ccc(C)cc2)nc1C,20,2.3,8,-2,-1,-7
OC[C@@H]1CN(Cc2ccncc2)C[C@H](n2cnc3c(NC4CCCC4)ncnc32)O1,nt,-0.4,nt,12,-13,-5
O=C(CCNC(=O)Cn1cnc2ccccc2c1=O)NCCC1=CCCCC1,-1,-0.9,-10,9,-2,-2
COc1cccc(/C=N/n2c(N)c(S(=O)(=O)c3cccs3)c3nc4ccccc4nc32)c1OC,-9,-0.1,4,?,?,-8
O=C(NNC(=O)c1ccc([N+](=O)[O-])cc1C(=O)O)c1ccncc1,19,-0.9,-25,-7,2,-3

# Results in D2 potentiator and TRPML1 inh, for some of the entries so far:
structure,D2 potentiator,TRPML1 inh
CCNC(=O)CC1C(=O)N(c2ccc(OC)cc2)C(=O)N1CCOC (stereo unspecified),-2,nt
CC(=O)c1sc(N/N=C\c2ccc(C)cc2)nc1C,-7,20

# New compounds follow
SMILES,TRPML1 inh,TRPML1 ag,TRPV1 potentiator,Six1-Eya2 inh,CtBP-E1A inh,D2 potentiator
Cc1ccccc1-c1nc(S(=O)(=O)c2ccccc2)c(NCCCN2CCOCC2)o1,6,-0.2,nt,1,nt,-12
COc1cccc(C(=O)Nc2cccc3ccccc23)c1,38,0.2,-7,-1,0,-5
COc1ccc(Oc2nc(C)nc3c2oc2ccccc23)cc1,14,4.1,16,7,6,-1
O=C(CN1C(=O)NC2(CCCCCC2)C1=O)Nc1ccc(OC(F)(F)F)cc1,-3,-0.4,nt,0,0,-18
CCOC(=O)c1c(C)[nH]c(C(=O)OCC(=O)NCc2ccc(F)cc2)c1C,-10,-1.4,-11,-3,nt,-14
COc1ccc(NC(=O)OC(C)C)cc1,9,-1.3,-11,-4,-27,20
C#CCSc1cc(C(F)(F)F)nc(-c2ccccn2)n1,-2,4.6,-1,-3,6,-2
COc1ccc(/C=C2\CCCC3C2=NN(C(=O)CSc2ncn[nH]2)C3c2ccc(OC)cc2)cc1 (stereo unspecified),-12,0.6,-13,-20,2,-9
COc1cc(/C=N/NC(=O)c2ccccn2)ccc1OC(=O)c1cccs1,17,1.9,17,-8,-20,21
Cc1ccc(-c2cc(C(=O)NCc3cnn(C)c3)c3cc(Br)ccc3n2)cc1,-4&18,-0.3&-0.6,-11,1,12,-6
O=C(Nc1scc(-c2ccccc2)c1C(=O)O)c1ccccc1F,13,-0.1,5,?,?,-4
CCC(Sc1nc(N)c(NC(=O)c2ccc(Br)o2)c(=O)[nH]1)C(=O)O (stereo unspecified),19,0.8,19,0,6,-2
Cc1ccc(-c2nsc(SCC(=O)Nc3ccc4c(c3)OCO4)n2)cc1,0,-0.3,7,-7,7,8
CCN(CC)S(=O)(=O)c1cc(NS(=O)(=O)c2cccc(Cl)c2Cl)ccc1C,19,1.3,5,10,7,1
Cc1nn(C(=O)c2ccco2)c(C)c1CN1C(=O)c2ccccc2C1=O,13,1.4,-2,1,-7,-2
Cc1nc(NCC2CCCO2)nc2c1C(=O)CC(C)(C)C2 (stereo unspecified),14,0.2,-5,0,-3,-1
COc1ccc(N(C(=O)c2ccco2)C(C(=O)NC2CCCC2)c2cccnc2)c(OC)c1 (stereo unspecified),-7,-0.7,-19,4,2,-8
CCC(C)C(N)C(=O)N1CCCC1C(=O)NC(C(=O)O)C(C)CC (stereo unspecified),-1,-0.3,nt,28,25,-1
CC(NC(=O)c1ccccc1)C(=O)N/N=C/c1ccccc1 (stereo unspecified),7,-0.6,-1,0,-19,-18
COc1cc(OC)c(S(=O)(=O)Nc2ccc(C(=O)O)cc2)cc1S(=O)(=O)Nc1ccc(C(=O)O)cc1,25,0.2,2,-8,0,-6
COc1ccccc1C1C(C#N)=C(N)Oc2c1c(-c1ccccc1)nn2-c1ccccc1 (stereo unspecified),26,0.6,4,-12,-2,0
CCN(CC)c1ccc(NC(=O)CN2CCN(CC(=O)Nc3ccc(OC)cc3)CC2)cc1,-14,-0.9,8,-3,nt,2
C#CCOCCOCCOCCNc1nc(N2CCN(C(=O)C([C@@H](C)CC)n3cc(C(N)COC(=O)C(F)(F)F)nn3)CC2)nc(N2CCN(C(=O)[C@H](Cc3ccc(O)cc3)n3cc(C(N)[C@H](C)CC)nn3)CC2)n1 (stereo partly specified),-10,-0.1,nt,-12,nt,-6
N#Cc1c(NC(=O)CSc2ncn[nH]2)sc2c1CCCC2,2,-1.0,-3,-4,-3,-6
COc1ccccc1NC(=O)CCN1CCN(c2ccc(Cl)cc2)CC1,-13,2.0,-2,-15,-21,-5

# Reformatted tab-delimited: entries from further up.
structure	TRPML1 inh	TRPML1 ag	TRPV1 potentiator	Six1-Eya2 inh	CtBP-E1A inh	D2 potentiator
N#Cc1c(NC(=O)CSc2ncn[nH]2)sc2c1CCCC2	2	-1.0	-3	-4	-3	-6
COc1ccc(N(C(=O)c2ccco2)C(C(=O)NC2CCCC2)c2cccnc2)c(OC)c1 (stereo unspecified)	-7	-0.7	-19	4	2	-8
CCN(CC)S(=O)(=O)c1cc(NS(=O)(=O)c2cccc(Cl)c2Cl)ccc1C	19	1.3	5	10	7	1
CCN(CC)c1ccc(NC(=O)CN2CCN(CC(=O)Nc3ccc(OC)cc3)CC2)cc1	-14	-0.9	8	-3	nt	2
COc1ccc(NC(=O)OC(C)C)cc1	9	-1.3	-11	-4	-27	20
O=C(CN1C(=O)NC2(CCCCCC2)C1=O)Nc1ccc(OC(F)(F)F)cc1	-3	-0.4	nt	0	0	-18
COc1ccccc1NC(=O)CCN1CCN(c2ccc(Cl)cc2)CC1	-13	2.0	-2	-15	-21	-5

# Later entries
SMILES,TRPML1 inh,TRPML1 ag,TRPV1 potentiator,Six1-Eya2 inh,CtBP-E1A inh,D2 potentiator
O=C(NCCN1CCCC1)c1cc(-c2ccncc2)nc2ccc(S(=O)(=O)N3CCOCC3)cc12,-8,-0.6,-11,-11,-6,-3
CCOC(=O)CCCNC(=O)CN1C(=O)NC(c2ccccc2)(c2ccccc2)C1=O,-11,0.6,-3,9,-1,-4
Cc1cccc(OC2(c3ccccc3)OC(=O)c3ccccc32)c1C (stereo unspecified),6,3.4,1,8,11,-5
O=C(Nc1cccnc1Cl)c1cc(-c2ccc(Cl)cc2)on1,-8&-18,0.5&-0.4,18,5,-5,-3
CCOC(=O)c1c(NC(=O)OC)sc2c1CCC2,-17,1.0,-4,8,10,-14
O=C(/C=C/C=C/c1ccccc1)CC1(O)C(=O)N(CCc2ccccc2)c2ccccc21 (stereo unspecified),2,1.6,-28,-8,-1,-8
CC1CCC(=O)N(CCC#N)CC1 (stereo unspecified),7,-0.5&0.0,16,8,3,-3
COCCCNC(NC(=O)c1ccc(C)cc1)C(Cl)(Cl)Cl (stereo unspecified),12,-1.7,23,5,7,13
O=[N+]([O-])c1ccccc1Nc1nc(-c2cccnc2)cs1,-25,1.2,0,-11,nt,0
CCCCC1(Cc2cccc([N+](=O)[O-])c2)C(=O)N(c2ccccc2)N(c2ccccc2)C1=O,-2,1.3,-9,-19,-16,-6
CN(C)S(=O)(=O)c1cc(NC(=O)COC(=O)CC2CC3CCC2C3)ccc1Cl (stereo unspecified),18,0.9,nt,3,nt,-7
COCCCn1c(=O)c2ccccc2n(Cc2ccccc2C)c1=O,-6,1.2,?,-2,-3,7
O=C(/C=C/c1ccc(N2CCOCC2)cc1)c1ccccc1,-9,24,-18,-1,1,-4
CC(=O)c1sc(NC(=O)CSCc2c(C)noc2C)nc1-c1ccccc1,-2,0.3,-11,-5,7,-13
Cc1nc(N)[nH]c(=O)c1CCCNS(=O)(=O)c1ccc([N+](=O)[O-])cc1,3,-0.2,nt,-1,11,-2

# Part of the list above in order of length of the SMILES, high to low.
SMILES,TRPML1 inh,TRPML1 ag,TRPV1 potentiator,Six1-Eya2 inh,CtBP-E1A inh,D2 potentiator
CCCCC1(Cc2cccc([N+](=O)[O-])c2)C(=O)N(c2ccccc2)N(c2ccccc2)C1=O,-2,1.3,-9,-19,-16,-6
CCOC(=O)CCCNC(=O)CN1C(=O)NC(c2ccccc2)(c2ccccc2)C1=O,-11,0.6,-3,9,-1,-4
CC(=O)c1sc(NC(=O)CSCc2c(C)noc2C)nc1-c1ccccc1,-2,0.3,-11,-5,7,-13
